Screens deposited in PubChem BioAssay by National Center for Advancing Translational Sciences (NCATS).
RE007 growth inh: less growth of the S. pombe RE007 Vpr strain. S. pombe RE007 Vpr strain, BacTiter-Glo ATP luminescence, 24 h; control for the full effect not named in the record. Potency, µM (highest dose often 92.2 µM), for the others: at the highest dose activity change, negative = less growth. 360,000 tested, 0.21% active; active = well fitted falling curve with a large enough effect; inconclusive = small, poorly fitted or top-dose-only effect; inactive = no such curve, though single readings can be large or run the other way;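 further: on the % scale 0 is the no-effect control and ±100 the full control effect; nearly all actives have a fitted effect of over 50% in size; the assay follows cell death caused by Vpr and the record does not say whether a fall means rescue or toxicity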
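Fission yeast RE007 carrying one integrated HIV-1 vpr copy, seeded at OD 0.01 in PMG+AL medium with 23 nL pinned compound. Grown 24 h at 30 degrees; viability read by BacTiter-Glo luminescence after 5 min.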
Lassa entry inh: Lassa virus entry inhibition; Potency, µM (top dose mostly 37.9 µM), inactives show at the top dose activity change, negative = inhibition, usual class: inhibitors; Lassa virus pseudotype entry inhibition, cell reporter; control for the full effect not named in the record; 300,000 tested, 1.2% active; AID 540256; active means well fitted inhibition curve with a large enough effect; inconclusive means small, poorly fitted or top-dose-only effect, or effect the other way; inactive means flat fitted curve, though single readings scatter; tested in HEK293 cells; further: on the % scale 0 is the no-effect control and ±100 the full control effect; nearly all actives have a fitted effect of over 50% in size; luciferase read-out
NS1 inh: influenza NS1 inhibition; S. cerevisiae slowed by influenza A NS1, growth recovery by OD600; 270,000 tested, 0.4% active; Potency, µM (titrated, usually from 46.1 µM), without a hit: top-dose activity, positive = more growth; further: actives are rising curves; nearly all actives have a fitted effect of over 50% in size
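Recovery from NS1-induced slow growth read by OD600 in budding yeast switched to galactose assay medium (pH 6.0, -URA) at 1:100 dilution. Compound 23 nl per well; the matching strain lacking NS1 serves as control.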
2A StopGo: lowers the luciferase signal of an FMDV 2A StopGo reporter. 410,000 tested, 1.2% active. Potency, µM (top dose mostly 57.9 µM), inactives show top-dose signal change, negative = less light. human cells with a luciferase reporter of 2A StopGo recoding; control for the full effect not named in the record. AID 1159524; active = well fitted falling curve with a large enough effect; inconclusive = small, poorly fitted or top-dose-only effect; inactive = no such curve, though single readings can be large or run the other way; tested in HEK293T cells; further: on the % scale 0 is the no-effect control and ±100 the full control effect; nearly all actives have a fitted effect of over 45% in size; luciferase light after 4 h
MARV entry inh: blocks Marburg virus binding to or entry into cells. Potency, µM (series often up to 37.8 µM), for the others: at the top dose activity change, negative = inhibition, actives largely listed as inhibitors. AID 540276. Marburg virus pseudotyped entry inhibition, cell reporter; control for the full effect not named in the record; about a third of the inactives were read at about 46 µM. 300,000 tested, 1.8% active; active = well fitted inhibition curve with a large enough effect; inconclusive = small, poorly fitted or top-dose-only effect, or effect the other way; inactive = flat fitted curve, though single readings scatter; tested in HEK293 cells; about a fifth of its hits are not listed in these tables; further: on the % scale 0 is the no-effect control and ±100 the full control effect; luciferase read-out
SARS PLpro yeast: blocks SARS-CoV papain-like protease in a yeast assay | S. cerevisiae expressing SARS-CoV PLpro, growth rescue; control for the full effect not named in the record | AID 485353 | Potency, µM (highest dose often 32.9 µM), inactives show at the top dose activity, positive = growth rescue | 330,000 tested, 0.19% active; further: 0% is about no effect; nearly all actives have a fitted effect of over 55% in size; growth read by luminescence after 48 h
Cruzain inh noDet: cruzain (T. cruzi) inhibition without detergent | P25779 | purified cruzain, Z-FR-AMC fluorescence, no detergent | Potency, µM, for inactives: max response, negative = inhibition, hits mostly inhibitors | 200,000 tested, 2.3% active | AID 1476; active means well fitted curve in the direction sought with a large enough effect; inconclusive means small, poorly fitted or top-dose-only effect, or another doubt; inactive means no such curve, though single readings can be large; an effect the other way counts as inactive or inconclusive;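 further: plate controls were enzyme without inhibitor for no effect and buffer without enzyme for full effect; nearly all actives have a fitted effect of over 40% in size; top concentration of the series not given in the record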
Target sequence (P25779 123-467 limits assumed): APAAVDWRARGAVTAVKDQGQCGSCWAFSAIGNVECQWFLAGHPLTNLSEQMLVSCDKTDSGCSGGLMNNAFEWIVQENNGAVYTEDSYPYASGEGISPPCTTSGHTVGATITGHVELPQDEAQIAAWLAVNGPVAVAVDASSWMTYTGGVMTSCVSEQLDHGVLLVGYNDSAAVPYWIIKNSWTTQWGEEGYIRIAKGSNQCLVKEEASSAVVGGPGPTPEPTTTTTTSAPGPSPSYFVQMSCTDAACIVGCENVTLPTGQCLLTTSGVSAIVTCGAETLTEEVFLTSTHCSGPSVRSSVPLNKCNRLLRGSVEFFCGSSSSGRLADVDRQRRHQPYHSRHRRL
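Detergent-free condition (0.00005% Triton X-100) in acetate buffer pH 5.5 with DTT. 1.5 nM enzyme and compound were pre-mixed 15 min, then 2 uM Z-FR-AMC substrate added; reaction progress from fluorescence change between first and third reads (60 s).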
Cruzain Triton: blocks cruzain activity in presence of Triton detergent; P25779; purified cruzain, Z-FR-AMC fluorescence, 0.01% Triton; Potency, µM, inactives show max response, negative = inhibition, most hits filed as inhibitors; 200,000 tested, 0.43% active; AID 1478; active means well fitted curve in the direction sought with a large enough effect; inconclusive means small, poorly fitted or top-dose-only effect, or another doubt; inactive means no such curve, though single readings can be large; an effect the other way counts as inactive or inconclusive;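 further: plate controls were neutral wells for no effect and buffer without enzyme for full effect; nearly all actives have a fitted effect of over 40% in size; top concentration of the series not given in the record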
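Enzyme 1.5 nM, Z-FR-AMC 2 uM, NaOAc 100 mM pH 5.5, DTT 5 mM, Triton X-100 0.01%; 15 min RT compound preincubation; kinetic ex360/em450, 60 s delta.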
* hit, by the source's call; [ ] = remark or other dose. Unless noted, the call rests on the fitted dose curve; in most records, active means well fitted rising curve with a large enough effect; inconclusive means small, poorly fitted or top-dose-only effect; inactive means no such curve, though single readings can be large or run the other way. Potency means the concentration at half of the fitted maximal effect.

`O=C(c1cccc(F)c1)N1CCCC(C(=O)N2CCCCC2)C1` (stereo not given) gave RE007 growth inh -10%, NS1 inh 11%, 2A StopGo -7% and SARS PLpro yeast 5%.
Cc1ccc(S(=O)(=O)Nc2ccc3c(c2)nc(C)n3C)cc1 was read as RE007 growth inh -3%, Lassa entry inh 10%[46.1 µM], NS1 inh -5%, 2A StopGo -15%, MARV entry inh inconclusive and SARS PLpro yeast -1%.
`COc1cc(C(=O)NCCc2sc(-c3ccc(C)cc3)nc2C)cc(OC)c1OC` gave Lassa entry inh 8%[46.1 µM], 2A StopGo -2%, Cruzain inh noDet inconclusive and Cruzain Triton -6.9%.
Screening O=C(NN1C(=O)NC2(CCCCC2)C1=O)c1ccc(-c2ccccc2Cl)o1 returned RE007 growth inh 9%, Lassa entry inh 24%, 2A StopGo 24%, MARV entry inh 2% and SARS PLpro yeast 4%.
O=C(/C=C/c1cccc(O)c1)c1cccnc1 was read as RE007 growth inh -10%, Lassa entry inh -25%, 2A StopGo inconclusive, MARV entry inh inconclusive and SARS PLpro yeast 2%.
Screening CCN1CCCC1CN(Cc1cc2cc(OC)ccc2[nH]c1=O)C(=O)NCc1ccccc1 (stereo not given) returned RE007 growth inh 2%, Lassa entry inh 9%, NS1 inh 5%, 2A StopGo -14%, MARV entry inh -23%, SARS PLpro yeast 2%, Cruzain inh noDet 8% and Cruzain Triton -0.2%.
Screening O=C(NCCc1ccccc1)c1cccc(Br)c1 returned RE007 growth inh -24%, NS1 inh -42%, 2A StopGo 49%[activator] and SARS PLpro yeast -6%.
For O=C(Nc1cccc(Cl)c1)Nc1csc([N+](=O)[O-])c1 the results were RE007 growth inh -11%, Lassa entry inh inconclusive, NS1 inh -61%, 2A StopGo inconclusive, MARV entry inh inconclusive and SARS PLpro yeast -8%.
COc1ccc(C2CC(=O)N3C(=C2C#N)SCC3(O)c2ccccc2)cc1 (stereo not given) was read as RE007 growth inh -5%, Lassa entry inh -9%, NS1 inh -30%, 2A StopGo -30%, MARV entry inh -28%, SARS PLpro yeast 3%, Cruzain inh noDet -1% and Cruzain Triton -3.0%.
COc1ccc(S(=O)(=O)Nc2cccc(-c3ccc(N4CCC(C)CC4)nn3)c2)cc1OC was read as Lassa entry inh -29%[46.1 µM], 2A StopGo inconclusive, Cruzain inh noDet 11% and Cruzain Triton -7.8%.

Quoted from the listing for reference:
`O=C(c1cccc(F)c1)N1CCCC(C(=O)N2CCCCC2)C1` (stereo not given) gave RE007 growth inh -10%, NS1 inh 11%, 2A StopGo -7% and SARS PLpro yeast 5%.
Cc1ccc(S(=O)(=O)Nc2ccc3c(c2)nc(C)n3C)cc1 was read as RE007 growth inh -3%, Lassa entry inh 10%[46.1 µM], NS1 inh -5%, 2A StopGo -15%, MARV entry inh inconclusive and SARS PLpro yeast -1%.

Next section.
`CS(=O)(=O)c1nc(-c2ccccc2)cc(C(F)(F)F)n1` gave RE007 growth inh -7%, Lassa entry inh inconclusive, NS1 inh -88%, 2A StopGo 7.9µM*, MARV entry inh 6.3µM*, SARS PLpro yeast -95%, Cruzain inh noDet inconclusive and Cruzain Triton -6.9%.
Screening CC1=NN(C(=O)Cc2ccc([N+](=O)[O-])cc2)C(O)(c2cccnc2)C1 (stereo not given) returned RE007 growth inh 4%, Lassa entry inh -6%, NS1 inh 13%, 2A StopGo 25%, MARV entry inh -2%, SARS PLpro yeast -9%, Cruzain inh noDet -5% and Cruzain Triton 3.1%.
O=C(Nc1ccc(F)c(Cl)c1)N1CCN2CCCCC2C1 (stereo not given) was read as Lassa entry inh 11%[46.1 µM], 2A StopGo 21%, Cruzain inh noDet 8% and Cruzain Triton -1.4%.
For CCN(CC)S(=O)(=O)c1ccc(N2CCOCC2)c(NC(=O)c2cc([N+](=O)[O-])ccc2Cl)c1 the results were RE007 growth inh 9%, Lassa entry inh 1%, NS1 inh 0%, 2A StopGo -29%, MARV entry inh -18%[46.1 µM] and SARS PLpro yeast 1%.
For CC(=O)c1ccc(N2CCN(C(=O)c3cccs3)CC2)c(F)c1 the results were RE007 growth inh -20%, NS1 inh -1%, 2A StopGo 29% and SARS PLpro yeast -4%.
CCn1c(=O)n(CC)c2cc(N3CCCCC3)c(NC(=O)Nc3cc(Cl)ccc3OC)cc21 was read as Lassa entry inh inconclusive, 2A StopGo 0%, Cruzain inh noDet 5% and Cruzain Triton -3.8%.
CCC(C(=O)NCCCN(CC)CC)n1ncn2c(cc3occc32)c1=O (stereo not given) was read as 2A StopGo -8%, MARV entry inh -26%[46.1 µM], Cruzain inh noDet -7% and Cruzain Triton -3.1%.
`Cc1cccc(N2CCN(C(=O)CCCn3c(=S)[nH]c4cc5c(cc4c3=O)OCO5)CC2)c1C` gave RE007 growth inh 20%, Lassa entry inh inconclusive, NS1 inh inconclusive, 2A StopGo -14%, MARV entry inh inconclusive, SARS PLpro yeast 11%, Cruzain inh noDet inconclusive and Cruzain Triton -0.5%.
Screening N#Cc1ccccc1S(=O)(=O)N1CCN(CC(=O)NC(=O)NC2CCCCC2)CC1 returned RE007 growth inh 0%, Lassa entry inh 4%, 2A StopGo inconclusive, MARV entry inh -6% and SARS PLpro yeast 1%.
Screening Cc1nn(C(C)(C)C)c(OC(=O)c2cccs2)c1Sc1ccccc1 returned RE007 growth inh -12%, Lassa entry inh 19%, NS1 inh 8%, 2A StopGo inconclusive, MARV entry inh inconclusive, SARS PLpro yeast -16%, Cruzain inh noDet -2% and Cruzain Triton -1.0%.
`CC(C)C[C@H](NC(=O)Nc1cccc(Br)c1)C(=O)O` gave RE007 growth inh 9%, Lassa entry inh 6%, NS1 inh -4%, 2A StopGo -12%, MARV entry inh 18%, SARS PLpro yeast 23%, Cruzain inh noDet 7% and Cruzain Triton -2.1%.
Cc1ccnc(NC(=O)c2cc3ccccc3o2)c1 was read as RE007 growth inh -26%, Lassa entry inh inconclusive, 2A StopGo 28µM*, MARV entry inh 1.1µM* and SARS PLpro yeast 6%.
Screening Cc1ccn(CCC(=O)O)n1 returned RE007 growth inh 0%, NS1 inh 2%, 2A StopGo 1%, MARV entry inh 2%[46.1 µM] and SARS PLpro yeast 0%.
Screening CCNC(=O)CSc1nnc(CN2CCCCCC2=O)n1-c1ccccn1 returned RE007 growth inh 9%, Lassa entry inh -3%, 2A StopGo -2%, MARV entry inh 2%[46.1 µM] and SARS PLpro yeast 0%.
Screening O=C(CN1C2=NCCN2c2ccccc21)c1ccco1 returned RE007 growth inh -17%, Lassa entry inh -1%, NS1 inh -14%, 2A StopGo -1%, MARV entry inh 4%, SARS PLpro yeast 5%, Cruzain inh noDet -4% and Cruzain Triton 2.8%.
`CC(C)Oc1ccc(CNC(=O)C2CCN(C(=O)N3CCOc4ccc(Cl)cc43)CC2)cc1` gave Lassa entry inh -6%[46.1 µM], 2A StopGo -27%, Cruzain inh noDet inconclusive and Cruzain Triton -1.8%.
Screening CC(NC(=O)C1=Cc2ccccc2OC1)c1ccccc1 (stereo not given) returned Lassa entry inh -28%[46.1 µM], 2A StopGo -21%, Cruzain inh noDet 6% and Cruzain Triton -4.3%.
For O=C(O)C1CCN(C(=O)c2csc(-c3ccc4c(c3)CCO4)n2)CC1 the results were RE007 growth inh -2%, NS1 inh 3%, 2A StopGo 29% and SARS PLpro yeast 0%.
CCN(CC)c1ccc(NC(=O)Nc2ccc(C(C)=O)cc2)cc1 was read as RE007 growth inh -6%, Lassa entry inh 17%, NS1 inh 1%, 2A StopGo -6%, MARV entry inh inconclusive, SARS PLpro yeast -4%, Cruzain inh noDet 5% and Cruzain Triton -1.9%.
`CC(C)(C)Cc1nnc(NC(=O)Cc2ccc([N+](=O)[O-])cc2)s1` gave RE007 growth inh -2%, Lassa entry inh -2%, NS1 inh 5%, 2A StopGo -28%, MARV entry inh 1%, SARS PLpro yeast -5%, Cruzain inh noDet inconclusive and Cruzain Triton -3.8%.
`CCOC(=O)c1ccc(CNC(=O)c2cc(C(C)(C)C)oc2C)o1` gave RE007 growth inh -19%, Lassa entry inh inconclusive, NS1 inh -43%, 2A StopGo inconclusive, MARV entry inh -34%, SARS PLpro yeast 1%, Cruzain inh noDet inconclusive and Cruzain Triton -1.1%.
`Cc1ccc(CNC(=O)c2cc3sccc3n2Cc2ccc(F)cc2)cc1` gave Lassa entry inh 0%[46.1 µM], 2A StopGo -22%, MARV entry inh inconclusive, Cruzain inh noDet -18% and Cruzain Triton -4.8%.
O=C(CSc1nnc(-c2ccncc2)s1)Nc1ccc(Cl)c(C(=O)O)c1 was read as RE007 growth inh 9%, Lassa entry inh 9%, NS1 inh 12%, 2A StopGo -1%, MARV entry inh 14%[46.1 µM] and SARS PLpro yeast 22%.
For O=c1nc(SCc2c(F)cccc2Cl)nc(-c2ccccc2)[nH]1 the results were RE007 growth inh 3%, Lassa entry inh -9%[46.1 µM], NS1 inh -5%, 2A StopGo 5%, MARV entry inh 1%[46.1 µM] and SARS PLpro yeast -4%.
`CSc1nc(Nc2ccc(C)cc2)c(C#N)c(-c2ccccc2)n1` gave Lassa entry inh 12%[46.1 µM], 2A StopGo -11%, MARV entry inh inconclusive, Cruzain inh noDet -8% and Cruzain Triton -1.6%.
`COCC(=O)Nc1nnc(COc2ccccc2)s1` gave RE007 growth inh 13%, Lassa entry inh 11%, NS1 inh -9%, 2A StopGo 39%[activator], MARV entry inh 7%, SARS PLpro yeast 0%, Cruzain inh noDet 3% and Cruzain Triton 6.5%.
For CCOC(=O)c1sc(NS(=O)(=O)c2ccccc2Cl)nc1C the results were RE007 growth inh 18%, Lassa entry inh 6%, NS1 inh 17%, 2A StopGo 48%[activator], MARV entry inh 1%, SARS PLpro yeast 9%, Cruzain inh noDet 8% and Cruzain Triton -4.2%.
For CCCSc1ncc(Cl)c(C(=O)Nc2ccc(OC)cc2OC)n1 the results were Lassa entry inh 2%[46.1 µM], 2A StopGo -27%, MARV entry inh -19%[46.1 µM], Cruzain inh noDet -3% and Cruzain Triton -1.0%.

Rows were taken by chance. About 4.7% of those tested had a hit in this group.
